Menin-MLL FL inh = qHTS Assay for Inhibitors Targeting the Menin-MLL Interaction in MLL Related Leukemias: Competition With Fluorescein Labeled MLL-derived Peptide | FP activity change, % at 61.4 µM | 290,000 tested, under 10 active | AID 1766, 2009 | Fluorescence polarization, fluorescein-MLL peptide displacement from menin; inconclusive = falling polarisation curve, or a change in total fluorescence; inactive = total fluorescence flat and polarisation flat or rising; no compound was filed as active; the % refers to the polarisation; negative = inhibition;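 further: % of control where 0% means no effect; inhibitors lower the polarisation; unlabelled MLL peptide was the positive control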
TRPV1 PAM = HTS Assay for Compounds that Act as Potentiators of the Vanilloid Receptor 1; Transient receptor potential cation channel subfamily V member 1 (Homo sapiens), Q8NER1; TRPV1-expressing cells, Fluo-8 calcium influx, capsaicin EC20 potentiation; host cell line not named in the record; control for the full effect not named in the record; potentiation, % at 8.33 µM; actives 0.02% (n = 320,000); AID 540277, 2011; active means potentiation above 80%; inconclusive means 30% to 80%; inactive means below 30%; further: 0% is about no effect
Target sequence (Q8NER1 whole entry, looked up): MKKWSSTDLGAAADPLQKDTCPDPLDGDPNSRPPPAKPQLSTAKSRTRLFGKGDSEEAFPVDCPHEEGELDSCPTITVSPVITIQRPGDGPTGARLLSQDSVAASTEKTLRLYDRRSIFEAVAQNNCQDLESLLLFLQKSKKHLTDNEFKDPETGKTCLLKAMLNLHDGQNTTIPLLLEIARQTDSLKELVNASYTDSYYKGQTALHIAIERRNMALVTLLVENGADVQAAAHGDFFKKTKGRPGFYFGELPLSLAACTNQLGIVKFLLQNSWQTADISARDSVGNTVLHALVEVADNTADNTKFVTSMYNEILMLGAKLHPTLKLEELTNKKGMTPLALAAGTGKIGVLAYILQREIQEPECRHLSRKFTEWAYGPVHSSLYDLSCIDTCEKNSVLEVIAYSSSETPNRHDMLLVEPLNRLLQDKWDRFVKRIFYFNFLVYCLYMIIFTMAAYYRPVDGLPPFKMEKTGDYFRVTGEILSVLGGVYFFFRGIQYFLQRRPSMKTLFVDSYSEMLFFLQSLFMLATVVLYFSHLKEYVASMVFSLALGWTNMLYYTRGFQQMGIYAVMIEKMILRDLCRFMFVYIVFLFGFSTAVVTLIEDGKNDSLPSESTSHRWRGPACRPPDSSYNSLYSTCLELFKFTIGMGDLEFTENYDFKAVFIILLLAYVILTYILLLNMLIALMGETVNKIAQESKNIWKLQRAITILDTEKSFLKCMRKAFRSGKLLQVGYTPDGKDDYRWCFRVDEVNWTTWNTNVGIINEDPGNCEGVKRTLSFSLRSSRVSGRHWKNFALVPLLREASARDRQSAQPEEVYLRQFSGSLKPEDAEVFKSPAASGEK
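Cells expressing TRPV1 were dye-loaded with Fluo-8 and read kinetically: 10 s baseline, 3 min after compound (agonist portion), then 2 min after EC20 capsaicin (allosteric enhancer portion). Calcium-bound dye fluorescence at 480/520 nm.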
Sfp PPTase inh = qHTS Assay for Inhibitors of Bacillus subtilis Sfp phosphopantetheinyl transferase (PPTase); Potency, µM, for the others: max response, negative = inhibition, hits mostly inhibitors; Biochemical Sfp PPTase activity, qHTS; 4'-phosphopantetheinyl transferase ffp (Bacillus subtilis), Q9F4F7; actives 3.5% (n = 310,000); active means well fitted inhibition curve with a large enough effect; inconclusive means small, poorly fitted or top-dose-only effect, or another doubt; inactive means no such curve, though single readings can be large or run the other way;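 further: the enzyme is Sfp with the accession as filed and its product quenches rhodamine fluorescence; potency means the concentration at half of the fitted maximal effect; 0% = enzyme reaction without inhibitor and -100% = no enzyme wells; top concentration of the series not given in the record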
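Fluorescence-quenching assay with 15 nM Sfp, 5 uM rhodamine-CoA and 12.5 uM BHQ-2-labelled ybbR peptide in pH 7.6 Hepes/MgCl2 buffer. Enzyme was pre-incubated with compound for 15 min at room temperature. Rate was taken from the 30-min fluorescence change (525/598 nm).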
gsp antag = qHTS for Antagonists of gsp, the Etiologic Mutation Responsible for Fibrous Dysplasia/McCune-Albright Syndrome: qHTS; gsp-mutant cells, cAMP HTRF, 30 min; control for the full effect not named in the record; Potency, µM (titrated, usually from 76.9 µM), inactives show top-dose activity change, negative = inhibition, actives largely listed as inhibitors; actives 0.4% (n = 340,000); active = falling curve of any shape with a large fitted effect; inconclusive = falling curve, mostly with a smaller effect; inactive = flat or rising curve; cell line not stated here;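 further: intracellular cAMP measured with PDE inhibitor Ro 20-1724 present during compound exposure; potency means the concentration at half of the fitted maximal effect; on the % scale 0 is the no-effect control and ±100 the full control effect; nearly all actives have a fitted effect of over 65% in size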
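Measurement of cellular cAMP by homogeneous time-resolved fluorescence following a 30 min compound exposure at 37C. The PDE inhibitor […] was present throughout; the assay buffer was DPBS with 0.05% BSA and 0.005% Tween 20.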
gsp ag = qHTS for Agonist of gsp, the Etiologic Mutation Responsible for Fibrous Dysplasia/McCune-Albright Syndrome: qHTS; actives 0.13% (n = 340,000); Potency, µM (top dose mostly 76.9 µM), inactives show at the top dose activation (cAMP increase), hits mostly activators; gsp mutant cells, cAMP HTRF, 30 min; control for the full effect not named in the record; AID 624287, 2012; active = well fitted activation curve with a large enough effect; inconclusive = small, poorly fitted or top-dose-only effect, or another doubt; inactive = no such curve, though single readings can be large or run the other way; cell line not stated here;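 further: phosphodiesterase inhibitor Ro 20-1724 added with compounds to block cAMP breakdown; potency means the concentration at half of the fitted maximal effect; nearly all actives have a fitted effect of over 60% in size; about a fifth of the inactives were tested at one dose only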
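Cells stably selected in G418 were plated at 2000/well, grown 16-24 hr, then given compounds in DMSO with the PDE inhibitor […] (300 uM solution added) for 30 min at 37C; cAMP was read by HTRF.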
ClpP mod = qHTS Assay for Activators of ClpP; ATP-dependent Clp protease proteolytic subunit (Bacillus subtilis (strain 168)), P80244; actives 1.9% (n = 340,000); AID 651965, 2013; Potency, µM (series often up to 57.5 µM), for inactives: top-dose activity change, negative = active; purified B. subtilis ClpP, FRET peptide cleavage, 20 min; active = well fitted falling curve with a large enough effect; inconclusive = small, poorly fitted or top-dose-only effect; inactive = no such curve, though single readings can be large or run the other way; further: potency means the concentration at half of the fitted maximal effect; the source files actives as falling curves though it sought activators and does not explain the sign; nearly all actives have a fitted effect of over 65% in size; many hits overshoot -100%
Target sequence (P80244 whole entry, looked up): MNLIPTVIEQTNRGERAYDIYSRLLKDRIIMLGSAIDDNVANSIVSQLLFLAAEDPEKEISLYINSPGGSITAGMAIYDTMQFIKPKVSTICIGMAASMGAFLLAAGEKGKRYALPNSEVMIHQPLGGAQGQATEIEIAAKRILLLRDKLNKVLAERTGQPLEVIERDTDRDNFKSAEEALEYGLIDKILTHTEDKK
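Buffer: 100 mM Tris/HCl pH8, 100 mM KCl, 0.05% low protease BSA, 2.5% glycerol, 0.01% Tween-20. ClpP 10 microg/mL final; 20 min RT; delta FRET normalized to ADEP and DMSO controls.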
CtBP-E1A blk = qHTS Assay for Inhibitors of the CtBP/E1A Interaction. CtBP / adenovirus E1A interaction (AlphaScreen). AlphaScreen GST-E1A/His-CtBP binding, 1536-well; active compounds read low; control for the full effect not named in the record. activity change, % (test concentration not listed). actives 0.49% (n = 340,000). AID 651724, 2012; in the data active means activity change below about -65%; inconclusive means about -30% to -65%; inactive means above about -30%; further: on the % scale 0 is the no-effect control and ±100 the full control effect
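Homogeneous bead-based format: GST-tagged E1A captured on glutathione donor beads, His-tagged CtBP on nickel acceptor beads; compounds precede bead addition by 2 h at 37 °C.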
* hit, by the source's call; ? = inconclusive; . = not tested or not shown; & = joins results of further samples; [ ] = another dose, or the depositor's remark.

Structure,Menin-MLL FL inh,TRPV1 PAM,Sfp PPTase inh,gsp antag,gsp ag,ClpP mod,CtBP-E1A blk
CCC(=O)N/N=C(\C)CC(=O)Nc1ccc2ccccc2c1,-0.5,2,0%,-18%,1%,-18%,-16
O=C(COc1ccc(F)cc1Cl)Nc1ccccc1C(=O)N1CCCCC1,.,-8,.,0%,-43%[inhibitor],-4.5%,0
O=[N+]([O-])c1ccc2c(c1Nc1ccccc1)=NC1(CCCCC1)N=2,-1.9,-9,-30%,-19%,-11%,-1.3%,?
CS(=O)(=O)N1CCN(c2ccc(NC(=S)NC(=O)c3ccccc3[N+](=O)[O-])cc2)CC1,7.7,-4,-13%,-12%,20%,.,2
Cc1ccc(S(=O)(=O)N2CC3(C)CN(S(=O)(=O)c4ccc(C)cc4)CC(C)(C2)C3O)cc1 (centres undefined),2.6,4,12%,4%,-45%[inhibitor],-1.7%,7
O=C(/C=C/c1ccco1)NCCCN1CCOCC1,3.8,10,5%,9%,9%[15.4 µM],-1.7%,5
Cc1ccc(C)c(N2CCN(CCCc3ccccc3)CC2)c1,1.6,-1,-4%,6%,-49%,-3.3%,-7
CC1CCCC(C)N1C(=O)CSc1nnc(-c2cccs2)o1 (centres undefined),1.1,-22,11%,0%,-33%[inhibitor],-21%,44
O=C(Cc1cccc(NC(=O)C2CCCN(C(=O)C3CCCCC3)C2)c1)Nc1cccc(C(=O)N2CCOCC2)c1 (centres undefined),.,.,.,3%,.,2.2%,5
CSc1ccccc1OCc1cc(C(=O)NCCc2ccco2)no1,.,9,13%,0%,-25%,?,-1
COc1ccc(/C=C/C(=O)OCC(=O)Nc2ccc(N3CCOCC3)cc2)cc1OC,5.1,3,-1%,0%,-3%,3.8%,.
Cc1ccccc1N(CC(=O)N/N=C/c1cc(C)n(-c2ccccc2C)c1C)S(C)(=O)=O,-0.4,20,15%,9%,17%,-2.5%,-16
COc1ccccc1-c1cccc([C@@H]2C[C@H]3[C@H](CON3C)CN2Cc2cc(Cl)cc(Cl)c2)c1,.,.,.,1%,.,-2.7%,2
CCCN1CCc2c(sc(NC(=O)c3ccc(S(=O)(=O)N4CCN(C(=O)OCC)CC4)cc3)c2C(N)=O)C1,?,4,-6%,-29%,-6%,-15%,-1
COCCn1c(SCC(=O)c2ccccc2)nc2c(c1=O)SCC2,1.7,25,-3%,-13%,7%,.,-3
O=C(N/N=C/c1ccc([N+](=O)[O-])s1)c1ccccc1Br,-2.1,-20,1%,10%,-2%,-17%,4
CSc1nc2[nH]c(=O)n(O)c(=O)c2n1Cc1ccccc1,.,.,.,-4%,14%,.,-8
COc1ccc(N2CCN(C(=O)Cc3coc4cc(C)ccc34)CC2)cc1,0.3,-12,4%,.,-2%[15.4 µM],.,-7
Cc1ccc(C)c(S(=O)(=O)N=Nc2c(O)[nH]c3ccccc23)c1,-2.1,11,-19%,.,4%[15.4 µM],.,-7
CN(C(=O)COc1ccc(Cl)cc1)c1nnc(C23CC4CC(CC(C4)C2)C3)s1,-0.3,-4,18%,.,.,.,.
O=C(c1cc(COc2ccc(F)cc2Cl)on1)N1CC2C[C@@H]3CC1C[C@H](C2)C3,.,1,2%,3%,-20%,-2.4%,.
CC1=CC(C)(C)N(C(=O)C(C)N2C(=O)c3ccccc3C2=O)c2ccc(C)cc21 (centres undefined),-2.0,-15,-3%,1%,3%,-1.0%,6
O=C(N/C(=C/c1cccs1)C(=O)N1CCOCC1)c1cccs1,0.8,9,24%,2%,1%,1.0%,14
CCn1c(SCC(=O)Nc2ccc(F)cc2F)nc2c(c1=O)SCC2,.,1,14%,0%,19%,-3.9%,14
COC(CNC(=O)c1ccc2c(c1)nc(C)n2-c1cc(C)cc(C)c1)OC,6.3,10,-1%,-1%,1%,2.2%,.
CC1=C(C(=O)N2CCCCC2)C(c2cccs2)C2=C(CCCC2=O)N1 (centres undefined),7.8,12,3%,3%,2%,?,-1
Cc1ccsc1C(=O)OCc1cc(=O)n2ccsc2n1,.,-2,.,6%,3%,-11%,0
COc1ccc(/C=C(\C#N)C(=O)OCC(=O)NCc2ccccc2OC)cc1,.,13,.,4%,-15%,-8.5%,13
Oc1ccc(Br)cc1/C=N/n1c(COc2ccccc2)n[nH]c1=S,12,7,?,-11%,-13%,-2.0%,-9
Nc1cccc(Nc2nc(OC(C(F)(F)F)C(F)(F)F)nc(OC(C(F)(F)F)C(F)(F)F)n2)c1,4.8,-15,28%,-21%,?,2.0%,-3
Cc1ccc(CSCC(=O)NCCc2ccccc2)cc1,-1.3,-18,14%,-5%,-29%,0.9%,7
CCCCOC(=O)c1cc(C)nc2ccc(Br)cc12,1.6,1,3%,23%,?,0.2%,26
O=C(C1CCN(S(=O)(=O)N2CCC3(CC2)OCCO3)CC1)N1CCN(Cc2ccccc2)CC1,-1.7,5,18%,5%,-1%,-0.6%,10
Cc1cc(C)cc(NC(=O)OCCN2CCN(Cc3ccccc3)CCC2=O)c1,-0.3&0.6,-2,0%&-5%,7%,5%,-2.0%,-11
CCCc1nn2c(N)c(/C=C3\C=Nc4ccccc43)c(=O)nc2s1,0.8&3.3,26&2,4%&5%,?,3%[15.4 µM],-0.6%&-1.9%,-8&-5
O=C(Nc1ccccc1C(=O)Nc1ccc2c(c1)OCO2)c1cccs1,-2.2,-8,?,-26%,19%,0.2%,-27
Cn1c(-c2cc(Cl)ccc2O)nc2c1c(=O)[nH]c(=O)n2Cc1ccccc1,1.1,10,4%,-17%,6%[15.4 µM],.,11
COc1ccc(OC)c(NC(=O)CSc2ncnc3sc(C)cc23)c1,.,.,.,8%,7%[15.4 µM],.,-73*
COc1ccc(C(=O)COC(=O)/C=C/c2ccco2)cc1F,.,-8,.,6%,-4%,-1.2%,.
CCOc1ccc2oc(C(=O)OCC(=O)N3CCCC(C)C3)c(C)c2c1 (centres undefined),.,-14,.,?,0%,28µM*,-12
COc1cc(CN2CCN(c3cc(C)ccc3C)CC2)cc([N+](=O)[O-])c1O,.,.,.,-10%,24%,-0.4%,-4
COC(=O)c1nc(NNC(=O)c2ccccc2)sc1-c1ccccc1,-2.2,-2,-4%,1%,-32%[inhibitor],.,1
COc1ccc2c(C)cc3n[nH]c(=S)n3c2c1,0.4,.,16µM*,-1%,?,-22%,.
CCn1c(SCC(=O)NCCc2ccccc2)nc2c([nH]c3ccccc32)c1=O,.,-3,-5%,13%,-16%,-4.8%,5
Cc1cc2cc3c(cc2nc1SCC(=O)OC(C)C)OCCO3,4.9,-12,-12%,-26%,21%,-17%,11
COc1ccc(NC(=O)c2ccc(N3C(=O)C4CC=C(C)CC4C3=O)cc2)c(OC)c1 (centres undefined),-2.2,-14,0%,-9%,-20%,1.7%,.
C=CCn1nc(-c2ccccc2)c(N2CCCCC2)cc1=O,1.8,-23,11%,-13%,-14%,.,-7
O=C(Cn1c(=O)c2cccn2c2ccccc21)Nc1cc(F)ccc1F,.,-8,1%,-2%,?,-9.4%&-5.9%,1
O=C(NCCN1C(=O)S/C(=C/c2cccnc2)C1=O)C1CC(=O)N(Cc2ccccc2)C1 (centres undefined),-4.1,-1,2%,-14%,-12%,-0.2%,.
O=C(CSC(=S)N1CCCC1)N1CCN(S(=O)(=O)c2ccccc2F)CC1,.,-11,.,0%,16%,-1.4%,-13

Following part.
Structure,Menin-MLL FL inh,TRPV1 PAM,Sfp PPTase inh,gsp antag,gsp ag,ClpP mod,CtBP-E1A blk
CC(OC(=O)c1ccc(-n2cnnn2)cc1)C(=O)Nc1ccc(F)c(F)c1F (centres undefined),.,12,.,-4%,2%,-7.5%,.
CCOC(=O)c1sc2nc(COC(=O)c3c(F)cccc3F)[nH]c(=O)c2c1C,?,-7,9%,-5%,12%,4.0%,6
CC(C)=CCC/C(C)=C/CNC(=O)C[C@H]1C[C@H](C(=O)N2CCCCC2)[C@@]2(C)c3[nH]c4cc(-c5ccco5)ccc4c3CCN2C1=O,.,.,.,-5%,.,3.7%,-21
CCOC(=O)NN1C(=O)c2ccccc2NC1C (centres undefined),1.2,7,15%,9%,-3%,4.2%,-11
CCC(=O)Nc1ccc(Cl)c(NC(=O)c2cccc(OC)c2)c1,-0.5,-1,27%,0%,-4%,.,2
Cc1cccc(N2C(=O)C=CC2=O)c1,.,.,.,11%,-28%,.,-1
O=C(c1cc2cccc([N+](=O)[O-])c2oc1=O)N1CCOCC1,7.7,-9,3%,1%,-11%,-0.3%,.
CCCCc1ccc(-c2c(C#N)c(N)nc3c2CCCC3)s1,5.3,16,20%,4%,-2%,-5.5%,8
CCc1ccc(-c2cc(N)n(-c3ccccc3)n2)cc1,1.9,-54,4%,-18%,-14%,-1.5%,-5
CCOC(=O)c1ccc(NC(=O)C2=C(C)Nc3nc(CCCO)nn3C2c2cccc(C)c2)cc1 (centres undefined),0.2,-2,20%,-1%,-70%[inhibitor],-0.9%,2
COCCCNC(=O)C[C@H]1C[C@H](C(=O)N2CCCCC2)[C@@]2(CCc3ccccc3)c3[nH]c4ccc(Cl)cc4c3CCN2C1=O,.,.,.,-5%,.,1.7%,8
N#C/C(=C\Nc1ccc2c(c1)OCCO2)c1nc(-c2ccccc2)cs1,3.9,?,-1%,?,-2%,-1.8%,.
O=C(COc1ccccc1F)NCC(c1ccco1)N1CCCC1 (centres undefined),0.2,-1,15%,.,-2%[15.4 µM],.,7
Cc1onc(-c2ccccc2)c1C(=O)Nc1ccon1,-0.2,10,13%,11%,28%,0.1%,5
CCCn1nnnc1NCc1ccc(N2CCCC2)cc1,-3.4,-4,1%,-7%,-9%,-1.2%,-6

Screening results as filed in PubChem.
